Source: PubChem
GIRK2 activ: activators of human GIRK2 potassium channels; HEK293-GIRK2 thallium flux, Thallos fluorescence; calls only for hits at 25 µM; G protein-activated inward rectifier potassium channel 2 (Homo sapiens), P48051; 63,000 compounds, 0.05% hits;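 active = among the strongest 0.2% of first-round signals and kept after retests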;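 also: first round at about 10 µM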
Target sequence (P48051 whole entry, looked up): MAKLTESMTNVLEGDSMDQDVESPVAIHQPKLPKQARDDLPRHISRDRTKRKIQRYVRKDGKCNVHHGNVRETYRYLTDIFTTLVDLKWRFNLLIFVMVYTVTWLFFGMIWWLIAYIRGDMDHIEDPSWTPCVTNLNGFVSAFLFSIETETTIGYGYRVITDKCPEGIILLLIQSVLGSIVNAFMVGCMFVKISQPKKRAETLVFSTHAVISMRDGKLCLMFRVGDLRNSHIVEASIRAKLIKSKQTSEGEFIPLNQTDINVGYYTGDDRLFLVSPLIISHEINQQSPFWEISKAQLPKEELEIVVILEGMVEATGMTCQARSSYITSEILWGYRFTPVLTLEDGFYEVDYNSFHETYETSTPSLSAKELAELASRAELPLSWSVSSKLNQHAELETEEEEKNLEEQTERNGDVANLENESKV
Calls only; i = inactive. An excerpt; the hit share may differ from the screen's.

compound	GIRK2 activ
CC1CC(C)CN(c2nccn3c(=O)n(CC(=O)Nc4cccc(C(F)(F)F)c4)nc23)C1 (centres undefined)	i
COc1ccc(C2C(C(=O)c3cccs3)=C(O)C(=O)N2c2nc(C)c(C)s2)cc1 (centres undefined)	i
COc1ccc(-c2cc3nc(C)cc(N4CCCC4)n3n2)cc1OC	i
O=C(NC(=S)N1CCOCC1)C12CC3CC(C1)CC(c1ccccc1)(C3)C2	i
COc1ccccc1C1(CNC(=O)CC(CC(=O)O)c2cccs2)CCOCC1 (centres undefined)	i
CC(C)N(Cc1ccccc1)S(=O)(=O)c1ccc(C(=O)N2CCCc3ccccc32)cc1	i
COc1cc(OC)c(OC)cc1/C=C1\Oc2c(ccc3c2CN(CCN2CCOCC2)CO3)C1=O	i
Cn1c(=O)c2c(nc(N3CCOCC3)n2CCSc2nc3ccccc3s2)n(C)c1=O	i
O=C(N1CCC(c2nnc(-c3ccco3)o2)CC1)C1(c2ccccc2)CCOCC1	i
Nc1c(-c2nc(-c3ccc4c(c3)OCO4)cs2)nnn1-c1cccc(F)c1	i
Cc1nc(Nc2ccc(F)cn2)sc1C(=O)N1CCN(C2CCCCC2)CC1	i
CC(=O)CC1(O)C(=O)N(CCOc2ccc(C)cc2)c2ccc(C)cc21 (centres undefined)	i
Cc1cc(C)n(CC(=O)Nc2ccc(C(C)C)cc2)c(=O)c1C#N	i
Cc1ccc(S(=O)(=O)N(C)c2c(C)cc(C)c(S(=O)(=O)NCc3cccnc3)c2C)cc1	i
COc1ccc(C(=O)Oc2c(S(=O)(=O)c3ccc(C)cc3)c(C)nn2C(C)(C)C)cc1OC	i
O=C(Cc1cccs1)NCC#CCOc1ccc2c(c1)OCO2	i
O=C(Nc1ccccc1-c1nc2ccccc2[nH]c1=O)c1ccc(Cl)c([N+](=O)[O-])c1	i
COc1ccccc1NC(=O)/C=C/c1ccc(OC)c(OC)c1	i
COc1ccc(CCC(=O)N2CCCSCC2CN(C)C)cc1 (centres undefined)	i
O=C(CCS(=O)(=O)c1ccccc1)N1CCN(C(=O)C2CC2c2ccc3c(c2)OCO3)CC1 (centres undefined)	i

Exported with the structure last: entries from further up.
GIRK2 activ | mol
i | O=C(Cc1cccs1)NCC#CCOc1ccc2c(c1)OCO2
i | O=C(Nc1ccccc1-c1nc2ccccc2[nH]c1=O)c1ccc(Cl)c([N+](=O)[O-])c1
i | COc1ccccc1NC(=O)/C=C/c1ccc(OC)c(OC)c1
i | COc1ccc(CCC(=O)N2CCCSCC2CN(C)C)cc1 (centres undefined)
i | O=C(CCS(=O)(=O)c1ccccc1)N1CCN(C(=O)C2CC2c2ccc3c(c2)OCO3)CC1 (centres undefined)

The listing continues:
compound	GIRK2 activ
Cc1cc(C)c(C(=O)NCCn2nc(C)cc2C)c(C)c1	i
COc1cc(S(=O)(=O)NCC2CCCO2)c(C)cc1C (centres undefined)	i
COc1ccc(CCNC(=O)NCCn2nc(C(F)(F)F)n(C)c2=O)cc1	i
COc1ccc(CCC(=O)NCC2(c3cccs3)CCOCC2)cc1	i
CC(C)c1ccc(NC(=O)CSc2nccc(N3CCCCCC3)n2)cc1	i
O=C(CSc1nnc(CCc2nc3ccccc3[nH]2)o1)N1CCN(c2ccccc2F)CC1	i
CC(=O)c1ccc(NC(=O)CSc2nnc(C)c3cnn(-c4ccc(C)cc4)c23)cc1	i
CSc1cccc2sc(N(Cc3cccnc3)C(=O)CCCSc3ccccc3)nc12	i
Cc1noc(C)c1S(=O)(=O)NCC(c1cn(C)c2ccccc12)N(C)C (centres undefined)	i
CN(C)S(=O)(=O)c1ccc(C(=O)N2CCc3nc(NC(=O)C4CCCO4)sc3C2)cc1 (centres undefined)	i
COc1ccccc1CNC(=O)Cn1nc(-c2cccc(Br)c2)ccc1=O	i
Cc1cc(C)n(-c2nc(CCNC(=O)c3cccc(-n4cnnn4)c3)cs2)n1	i
CCN(CC)C(=O)c1cnc2nc(C)ccc2c1Nc1ccc(F)cc1	i
O=C(c1ccco1)N1CCC(Oc2ccc(C(F)(F)F)cn2)CC1	i
CNC(=O)C(=O)NCCC1CCCCN1S(=O)(=O)c1ccc(F)cc1C (centres undefined)	i
COCCCNC(=O)c1c(N)n(/N=C\c2cccc(OC)c2)c2nc3ccccc3nc12	i
CNC(=O)Cn1nnn(-c2ccc(NC(=O)C3(c4cccs4)CCCC3)cc2)c1=O	i
O=[N+]([O-])CCc1ccc(O[C@@H]2O[C@H](CO[C@@H]3OC[C@@H](O)[C@H](O)[C@H]3O)[C@@H](O)[C@H](O)[C@H]2O)cc1	i
CCN1CCc2c(sc(NC(=O)CSc3ccc(C)cc3)c2-c2nc3ccccc3s2)C1	i
CC(=O)Nc1cccc(Nc2c(C(=O)N3CCCC3)cnc3nc(C)ccc23)c1	i
CCc1ccc(S(=O)(=O)Nc2ccc(-c3csc4nc(C)cc(=O)n34)cc2)cc1	i
COc1ccc(-n2c(=O)c3ccccc3n(CC(=O)NCc3ccc(C)cc3)c2=O)cc1	i
COc1ccc(N2C(=O)C3N=NN(Cc4ccc(OC)c(Br)c4)C3C2=O)cc1 (centres undefined)	i
Cn1c(=O)n(CCCc2ccccc2)c(=O)c2c1nc1n2CCCN1Cc1ccco1	i
O=C(Nc1nc2c(s1)CN(C(=O)C1CC=CCC1)CC2)C1CCCO1 (centres undefined)	i
CC1CC(C)CN(S(=O)(=O)c2ccc(C(=O)N3CCCc4ccccc43)cc2)C1 (centres undefined)	i
COC(=O)c1ccccc1C(=O)N1CCCC(c2nnc(-c3ccc4c(c3)OCO4)o2)C1 (centres undefined)	i
CSc1ncc(Cl)c(C(=O)Nc2cccc(C)n2)n1	i
O=S(=O)(Nc1cnc(N2CCN(c3ccccn3)CC2)nc1)c1ccccc1	i
Cc1cc2oc3c(c(=O)c2cc1Cl)C(c1ccc(F)cc1)N(CCN(C)C)C3=O (centres undefined)	i

Four compounds drawn at random from those above, as already listed:
compound	GIRK2 activ
O=S(=O)(Nc1cnc(N2CCN(c3ccccn3)CC2)nc1)c1ccccc1	i
CCc1ccc(S(=O)(=O)Nc2ccc(-c3csc4nc(C)cc(=O)n34)cc2)cc1	i
Cn1c(=O)n(CCCc2ccccc2)c(=O)c2c1nc1n2CCCN1Cc1ccco1	i
CC1CC(C)CN(S(=O)(=O)c2ccc(C(=O)N3CCCc4ccccc43)cc2)C1 (centres undefined)	i

New compounds follow.
compound	GIRK2 activ
CCOC(=O)C1CCCN(C(=O)CCCSc2ccc(NC(=O)C3CC3)nn2)C1 (centres undefined)	i
Cc1nc(SCc2cccc(Cl)c2)[nH]c(=O)c1CC(=O)NCCc1ccc(F)cc1	i
CC(=O)N1CCc2c(sc(NC(=O)c3ccc4c(c3)CCCC4)c2-c2nc3ccccc3s2)C1	i
Cn1c(C2CCC(CNC(=O)c3c[nH]c4ccccc34)CC2)nc2ccccc21 (centres undefined)	i
COc1ccccc1C(=O)N1CCC(CSCc2ccco2)CC1	i
Cc1cc(CN2CCC(CNC(=O)Cc3ccc(SC(C)C)cc3)CC2)c(C)o1	i
O=C(NCc1nn(C2CCCC2)c2c1CCCC2)C1CC=CCC1 (centres undefined)	i
COc1cc(C(=O)Nc2ccc(S(=O)(=O)N3CCCC3)cc2)cc(OC)c1OC	i
COCCNC(=O)c1nnn(-c2ccc(NC(=O)Cc3ccccc3Cl)cc2)n1	i
Cn1cnnc1SCCNC(=O)c1cnn(-c2ccccc2)n1	i
Cc1cc(S(=O)(=O)NCC2CCN(S(=O)(=O)c3cccnc3)CC2)ccc1F	i
O=C(Nc1nnc(-c2ccc(F)cc2)o1)C1CCN(S(=O)(=O)c2ccc(F)cc2)CC1	i
O=C(OCc1ccncc1)c1cn(-c2cccc(Cl)c2)c(=O)c2ccccc12	i
Cc1cc(CN2CCC(CNC(=O)c3ccc4nsnc4c3)CC2)c(C)o1	i
O=C(Nc1nc(C(=O)NCc2ccc3c(c2)OCO3)co1)c1ccccc1	i
O=S(=O)(Nc1ccc(Nc2cc(-n3cccn3)ncn2)cc1)c1ccccc1Cl	i
O=C(NCC1CCN(c2ccccn2)CC1)c1cc2ccccc2o1	i
COc1cccc(CSc2nc(CC(=O)NC3CCCC3)cc(=O)[nH]2)c1	i
COC(=O)c1ccc(C(=O)N2CC(Oc3nc4c(C)cccc4s3)C2)cc1	i
CCOC(=O)c1cc[n+](CC(=O)c2cccs2)cc1	i
COc1cccc(-c2noc(Cn3ccn(-c4ccc(Cl)cc4)c(=O)c3=O)n2)c1	i
COc1ccc(CCNC(=O)c2ccc(Cn3c(C)nc4ccccc43)o2)cc1	i
COCCn1c(=O)c2c(nc3n2CCCN3c2cc(C)ccc2OC)n(C)c1=O	i
CCNc1cc(NCCNC(=O)c2ccc3c(c2)OCO3)nc(C)n1	i
O=C(CSC1CCCC1)N1CCOC(c2ccccc2)C1 (centres undefined)	i
Cc1ccc(C2Cc3cc(C(=O)Nc4ccc5oc(=O)ccc5c4)ccc3C(=O)O2)cc1 (centres undefined)	i
CC(C)Sc1ccc(CC(=O)N2CCC3(CC2)OCCS3)cc1	i
O=C(Nc1cc(OCc2ccccc2)ncn1)Nc1cccs1	i
O=C(Nc1ccc(-c2cnc3n2CCC3)cc1)c1ccccc1C(F)(F)F	i
COc1ccc(-c2cc3nc(C)cc(C)n3n2)cc1OC	i
COc1cccc(-c2c(NC(=O)c3ccc([N+](=O)[O-])cc3)oc3ccccc3c2=O)c1	i
Cc1c(C)n2c3c(=O)n(CC(=O)c4ccccc4)c(=O)n(C)c3nc2n1C(C)C	i
COc1cccc2cc(-c3nnc(NC(=O)c4cc5ccccc5o4)o3)oc12	i
COc1ccc(NC(=O)C(=O)NCC(O)c2ccoc2)cc1Cl (centres undefined)	i
CCOc1ccc(C(=O)Nc2ccc3c(c2)CCCN3C(=O)CC)cc1	i
COc1ccc(/C=C2\Oc3c(ccc4c3CN(Cc3cccnc3)CO4)C2=O)cc1OC	i
COc1ccc(S(=O)(=O)NC(C)C)cc1N(C)S(=O)(=O)c1ccc(Cl)cc1	i
Cn1cc(C(=O)N2CCCC2)cc(NC(=O)c2c(F)cccc2Cl)c1=O	i
Cc1ccc(NC(=O)CSc2nccc(N3CCCCC3)n2)c(Br)c1	i
Cc1ccc(NC(=O)CSc2c(C(C)C)cnc3c2c(=O)n(C)c(=O)n3C)cc1Cl	i
O=C(NCC1(c2ccccc2)CCOCC1)C(=O)Nc1cc2c3c(c1)CCC(=O)N3CCC2	i
O=C(Nc1ccc(F)cc1)c1cccnc1-c1nc2ccccc2s1	i
COc1ccc(-c2c(C)c3ccc(OCCN4CCN(C)CC4)cc3oc2=O)cc1OC	i
O=C(CN1N=C(c2ccccc2)c2ccccc2S1(=O)=O)Nc1cccc(Cl)c1	i
Cc1ccc(-c2noc(-c3ccc(=O)n(CC(=O)NC(C)C)c3)n2)cc1	i
COc1cc(OC)c(NC(=O)Cn2ccn3nc(-c4cccs4)cc3c2=O)cc1Cl	i
CN(C)c1nn(CC(=O)NCc2ccccc2F)cc1-c1ccc(Cl)cc1	i
CCCN1C(=O)CCc2cc(NC(=O)c3ccc(OC)c(OC)c3OC)ccc21	i
COc1ccc(CC(C)(O)CNC(=O)NC2CCCCC2)cc1 (centres undefined)	i
N=C(N)c1cc[nH]c1	i

Remaining list, next part:
compound	GIRK2 activ
Cc1ccc(Cl)cc1NC(=O)Cn1cccc(S(=O)(=O)N2CCCC2)c1=O	i
COc1ccc(OCC(O)CSc2ccccn2)cc1 (centres undefined)	i
OCc1ccc(-c2nn(Cc3ccccc3)c3ccccc23)o1	i
Cc1csc(C(=O)Nc2ccc(-n3nnc(C(N)=O)n3)cc2)c1	i
Cc1cc(=O)[nH]c(-n2nc(C3CC3)cc2NC(=O)c2cc(-c3ccccc3)on2)n1	i
O=S(=O)(CCc1ccccc1)N1CCN(c2ccc(-c3cccnc3)nn2)CC1	i
c1coc(-c2cc(-c3nc(-c4ccc5c(c4)OCO5)no3)[nH]n2)c1	i
Cc1cc(NC(=O)/C=C/c2ccncc2)c2cc(Br)ccc2n1	i
Cc1onc(-c2ccccc2Cl)c1C(=O)Nc1nnc(C2CC(=O)N(c3ccccc3)C2)o1 (centres undefined)	i
CC(=O)OC1CC(C)C2(CCC3(CC(=O)OC3O)O2)C2(C)CCCC(C)(C)C12 (centres undefined)	i
COc1cc2[nH]c3c(=O)n(CC(=O)NC4CCN(Cc5ccccc5)CC4)cnc3c2cc1OC	i
Cc1ccc(NC(=O)Nc2ccc(N3CCCCC3=O)cc2)cc1C	i
COc1ccc(NC(=O)c2ccc(S(=O)(=O)c3ccc(C)c(C)c3)nc2)cc1	i
CCc1[nH]nc(S(=O)(=O)NCc2ccccc2OC)c1C(=O)OC	i
COc1cc(/C=C2\Oc3cc(OC(=O)C(C)(C)C)ccc3C2=O)cc(OC)c1OC	i
CC1SC(C)C(=O)N(CC(=O)Nc2ccc3c(c2)OCCO3)C1=O (centres undefined)	i
CC(C)c1noc(C2CC(=O)N(c3ccc4c(c3)OCCO4)C2)n1 (centres undefined)	i
Cc1csc(SCC2CCN(S(=O)(=O)c3cccnc3)CC2)n1	i
COC(=O)Cn1c(=O)c2c(nc(-n3nc(C)cc3C)n2C(C)C)n(C)c1=O	i
C=CCn1c(SCCC(=O)Nc2ccc(F)cc2)nc2sc(C)c(C)c2c1=O	i
O=C(CC1=NS(=O)(=O)c2ccccc2N1)NCCc1c[nH]c2ccccc12	i
COC(=O)C1c2ccsc2CCN1C(C)=O (centres undefined)	i
N#C/C(=C/Nc1ccc2c(c1)OCO2)S(=O)(=O)c1ccc(Cl)cc1	i
Cc1ccc(NC(=O)C(C)Cn2nc(C)nc2C)c(C)c1 (centres undefined)	i
O=C(c1ccccc1Cl)N1CCN(Cc2nc3ccccc3[nH]2)CC1	i
O=C(NC1CCCC1)c1cccn1Cc1nc(-c2ccccc2)no1	i
